HCMV UL50-53 inh: inhibitors of HCMV UL50-UL53 interaction, biochemical, HTRF. normalized percent inhibition. HCMV UL50-UL53 nuclear egress complex (human cytomegalovirus). AID 1918969, 2023. 0.15% of 190,000 active. inhibition, % (test concentration not listed);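 active = both replicates at 50% or more, plus weaker picks with an unusually low signal ratio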;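 note: stock transfer was 100 nL into about 20 µL; 0% = negative control wells and 100% = wells with untagged competitor protein; inactives centre near -12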
GIV-Gai inh: inhibitors of GIV peptide binding to Galpha-i3, primary screen, biochemical, fluorescence polarization, FITC-GIV GBA peptide, rat Galphai3; Guanine nucleotide-binding protein G(i) subunit alpha-3 (Rattus norvegicus), P08753; 90 min; stronger effect = lower value; scaled: aluminum fluoride 0%, vehicle 100%; percent of control (FP), % (concentration not given with the values); 0.42% of 210,000 active;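 active = replicate mean at 85% of control or lower, very high polarization wells dropped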;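 note: wells of about 15 µL received 100 nL stock; the first replicate is given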
Target sequence (P08753 whole entry, looked up): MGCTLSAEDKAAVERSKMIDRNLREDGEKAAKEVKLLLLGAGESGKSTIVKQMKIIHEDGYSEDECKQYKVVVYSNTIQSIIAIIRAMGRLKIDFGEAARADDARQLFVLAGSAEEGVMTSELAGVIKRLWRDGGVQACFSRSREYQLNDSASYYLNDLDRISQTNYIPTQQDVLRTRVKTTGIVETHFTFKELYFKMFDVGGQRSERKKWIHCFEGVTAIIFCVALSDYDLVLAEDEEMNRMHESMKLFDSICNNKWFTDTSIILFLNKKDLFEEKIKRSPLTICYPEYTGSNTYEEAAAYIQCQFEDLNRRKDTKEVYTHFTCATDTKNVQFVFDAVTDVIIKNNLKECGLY
Sa growth 42C: S. aureus growth inhibition at 42 and 30 °C, primary screen, LtaS inhibitor project, RN4220, two temperatures; AID 720641, 2013; relative growth, % (no concentration beside the values); 0.53% of 170,000 active; OD600, 20 h, 42 °C; stronger effect = lower value;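 active = growth at 42 °C up to 50% and 20 or more points under that at 30 °C, or under 10% at both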;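 note: 300 nL library stock went into each well; scaled to the means of positive and negative controls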
Sa growth 42C second temp: recorded beside Sa growth 42C, whose call it bears; relative growth, %; measured here: growth at 30 °C;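 optical density after 20 h as mean of two plates; 100% = untreated growth and lower means inhibition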
Active calls of the source: *; . = no result given; & = joins results of further samples.

Codes – A = HCMV UL50-53 inh; B = GIV-Gai inh; C = Sa growth 42C; D = Sa growth 42C second temp
> Cc1cc(C(=O)COC(=O)C(C)N=C2NS(=O)(=O)c3ccccc32)c(C)n1C1CC1 (stereo unspecified)
  A = -30; B = .; C = 89; D = 82
> O=C(/C=C(\O)c1ccccc1)C(=O)NCc1ccccc1
  A = -27; B = 128; C = 137; D = 93
> CCOC(=O)C1CCC(CNCc2ccc(Cl)cc2)CC1 (stereo unspecified)
  A = .; B = 104; C = 78; D = 77
> CCCn1c(=O)c(C(=O)NC23CC4CC(CC(C4)C2)C3)c(O)c2ccccc21
  A = .; B = 101; C = 84; D = 90
> Cc1cccc(NC(c2cccnc2)c2cc(C)sc2NC(=O)c2ccccc2)n1 (stereo unspecified)
  A = -25; B = 105; C = .; D = .
> COc1cc(OC)c(NC(=O)Cn2cnc3c(nc4n3CCCCC4)c2=O)cc1Cl
  A = .; B = 107; C = 116; D = 95
> O=C(Nc1ccno1)NN1CCOCC1
  A = -8; B = 100; C = 110; D = 86
> Cc1nc(Nc2ccc(F)cc2)nc2c1C(=O)CCC2
  A = -26; B = 101; C = .; D = .
> O=C(Nc1ccc2c(c1)OCCO2)Nc1ccc2nc3n(c(=O)c2c1)CCC3
  A = 5; B = 97; C = .; D = .
> c1ccc(C2CCCSC2)cc1 (stereo unspecified)
  A = 0; B = 98; C = 99; D = 89

More entries:
Codes – A = HCMV UL50-53 inh; B = GIV-Gai inh; C = Sa growth 42C; D = Sa growth 42C second temp
> CCN(C(=O)Cn1c(C(=O)OC)cc2sccc21)c1cccc(C)c1
  A = -38; B = 106; C = 156; D = 91
> O=C(O)CC1Nc2ccccc2NC1=O (stereo unspecified)
  A = -18; B = .; C = 92; D = 80
> NS(=O)(=O)c1ccc(CNC(=O)/C=C/c2ccc3c(c2)OCO3)cc1
  A = .; B = 106; C = 101; D = 73
> O=C1NC(=S)N/C1=C/C=C/c1ccccc1
  A = -22; B = 106; C = 96; D = 83
> Cc1noc(C)c1C(=O)Nc1nc2ccc(Cl)cc2s1
  A = -8; B = 102; C = 68; D = 25
> CCCCN1C(C(=O)c2ccccc2)=C(OC(C)=O)c2ccccc2S1(=O)=O
  A = -18; B = 100; C = -0.5*; D = -0.7*
> CC1CCc2c(sc3nc(CCC(=O)N4CCCCC4)[nH]c(=O)c23)C1 (stereo unspecified)
  A = -24; B = 104; C = .; D = .
> O=C(Cn1cc(SCc2c(F)cccc2Cl)c2ccccc21)N1CCCC1
  A = .; B = 100; C = 98; D = 91
> Cc1cc(Cl)ccc1NC(=O)Cc1ccc(NC(=O)N2CCCCc3ccccc32)cc1
  A = .; B = 100; C = 81; D = 88
> CCc1ccc(NS(=O)(=O)c2ccc(-c3cc(C)no3)cc2)cc1
  A = .; B = 104; C = 69; D = 81

Further records:
Codes – A = HCMV UL50-53 inh; B = GIV-Gai inh; C = Sa growth 42C; D = Sa growth 42C second temp
> C/C(CCc1ccc2c(c1)OCO2)=N\NC(=O)c1ccccc1
  A = 4; B = .; C = 108; D = 96
> CC12C(=O)N(CCC3=CCCCC3)C(=O)C1C(c1ccccc1)C=CC2c1ccccc1 (stereo unspecified)
  A = -18; B = .; C = 95; D = 87
> COc1cccc(-n2c(=O)c3c(C)c(C)sc3n(CC(=O)NCc3ccccc3)c2=O)c1
  A = 0; B = 103; C = 91; D = 90
> CCCCOc1ccc(C(=O)Nc2ccc3c(c2)N(C(C)=O)CCC3)cc1
  A = .; B = 105; C = 85; D = 83
> Cc1ccc(N2CC(c3nc4ccccc4n3CCC3CCCCC3)CC2=O)cc1 (stereo unspecified)
  A = -20; B = 102; C = 88; D = 85
> CN(C)CCC(=O)c1ccc2c(c1)OCCO2
  A = 8; B = 108; C = 94; D = 93
> CC(C)CCN1C(=O)CC(C)Nc2ccccc21 (stereo unspecified)
  A = 9; B = 105; C = .; D = .
> COc1ccc(NS(=O)(=O)c2ccc3[nH]c4c(c3c2)CCCC4)c(OC)c1
  A = .; B = 108; C = 86; D = 101
> Cc1ccccc1Cn1cnc2c(oc3ccccc32)c1=O
  A = -14; B = 106&106; C = 110; D = 94
> Cc1cccc(N2CCN(C(=O)NC3CCCCC3)CC2C)c1 (stereo unspecified)
  A = -15; B = 100; C = 91; D = 83

Profiles, quoted from the list. Order of screens: HCMV UL50-53 inh	GIV-Gai inh	Sa growth 42C	Sa growth 42C second temp
Record of COc1cccc(-n2c(=O)c3c(C)c(C)sc3n(CC(=O)NCc3ccccc3)c2=O)c1 → 0	103	91	90
Record of CC12C(=O)N(CCC3=CCCCC3)C(=O)C1C(c1ccccc1)C=CC2c1ccccc1 (stereo unspecified) → -18	.	95	87

(list continues)
Codes – A = HCMV UL50-53 inh; B = GIV-Gai inh; C = Sa growth 42C; D = Sa growth 42C second temp
> CCN(CC)S(=O)(=O)c1ccc2c(c1)CC(C(=O)N1CCC(C(N)=O)CC1)N2C(C)=O (stereo unspecified)
  A = -4; B = 100; C = .; D = .
> CCc1nc2ccccc2n1CC(O)COc1cc(C)cc(C)c1 (stereo unspecified)
  A = -10; B = 114; C = .; D = .
> CSc1ncc(Br)c(C(=O)O)n1
  A = -11; B = 102; C = 85; D = 87
> COc1ccc(-n2cnc3cc(NS(=O)(=O)c4ccccc4)ccc32)cc1
  A = -12; B = 101; C = 127; D = 86
> O=C(c1cc(=O)[nH]c2ccccc12)N1CCN(Cc2ccc3c(c2)OCO3)CC1
  A = -15; B = .; C = 82; D = 85
> COc1ccc(Cl)cc1C(=O)Nn1c(-c2ccc(Br)cc2)nc2ccccc2c1=O
  A = -16; B = 107; C = .; D = .
> CC1Cc2ccccc2N1C(=O)COC(=O)c1ccc(Cl)c(N)c1 (stereo unspecified)
  A = -20; B = .; C = 103; D = 93
> Cc1cc(Nc2cc(F)ccc2C)nc(-n2nc(C)cc2C)n1
  A = .; B = 103&97; C = 3.1*; D = -0.2*
> Cc1ccc(SC(C)C(=O)Nc2ccc(N(C)C)cc2)cc1 (stereo unspecified)
  A = -5; B = 100; C = 107; D = 103
> CNC(=O)COc1c(C)c(C)cc(C)c1C
  A = -3; B = 105; C = 102; D = 96

(next part)
Codes – A = HCMV UL50-53 inh; B = GIV-Gai inh; C = Sa growth 42C; D = Sa growth 42C second temp
> CCCN(CCC)c1nc(Cl)nc(NCCN2CCOCC2)n1
  A = -1; B = 100; C = 95; D = 97
> CCOC(=O)c1cc(-c2ccccc2)no1
  A = -52; B = 99; C = 85; D = 82
> CC(=O)N1CCc2cc(N=Nc3c(N)[nH]n(-c4ccccc4)c3=O)ccc21
  A = -24; B = .; C = 97; D = 95
> Cc1ccc(NC(=O)CSc2nc3ccccc3c3nc(CCn4c(C)nc5ccccc54)nn23)cc1F
  A = .; B = 102; C = 92; D = 88
> CC(=O)N1c2ccc(S(=O)(=O)N(C)CC(=O)N3CCN(C4CCCCC4)CC3)cc2CC1C (stereo unspecified)
  A = -18; B = 105; C = 95; D = 94
> N#CCC(=O)Nn1c(=S)[nH]c2ccccc2c1=O
  A = .; B = 101; C = 103; D = 78
> O=S(=O)(NCC1CC1)c1ccc(F)cc1F
  A = .; B = 101; C = 108; D = 107
> COC(=O)CNc1cccc(C(F)(F)F)c1
  A = -20; B = 100; C = 107; D = 88
> O=C(NCc1ccc2c(c1)CCN2C(=O)c1ccc(F)cc1)c1cc2ccccc2[nH]1
  A = .; B = 108; C = 121; D = 91
> FC(F)n1nnn(-c2ccccc2)c1=S
  A = -1; B = .; C = 93; D = 81

Carrying on.
Codes – A = HCMV UL50-53 inh; B = GIV-Gai inh; C = Sa growth 42C; D = Sa growth 42C second temp
> Cc1cc(NC(=O)NC(C)(C)C)no1
  A = 5; B = .; C = 84; D = 98
> Cc1ccccc1-c1nc(CSc2nc(C)c(C)c(=O)[nH]2)c(C)o1
  A = -33; B = 104; C = .; D = .
> CCN=C1SC(C(N)=O)CC(=O)N1CC (stereo unspecified)
  A = -5; B = .; C = 98; D = 87
> CN(Cc1ccco1)C(=O)c1c[nH]c2ccc(S(=O)(=O)Nc3ccccc3F)cc2c1=O
  A = .; B = 98; C = 100; D = 96
> CC1CCC(Nc2ccc(S(=O)(=O)N3CCOCC3)cn2)CC1 (stereo unspecified)
  A = 0; B = .; C = 91; D = 96
> NC(=O)NC(=O)Cn1ncc(Cl)c(Cl)c1=O
  A = -63; B = .; C = 78; D = 86
> COc1ccc(NC(=O)c2nnc(SCC(=O)NCc3cccnc3)s2)cc1
  A = -22; B = 99; C = .; D = .
> Cn1c(=O)c(=O)[nH]c2c(=O)oc3ccccc3c21
  A = -88; B = 101; C = 73; D = 86
> CN1C(=O)C(C)(C)c2cc(S(=O)(=O)NCc3ccc(C(=O)Nc4ccc(Cl)cc4)cc3)ccc21
  A = .; B = 101; C = 124; D = 84
> O=c1c2ccccc2nc(SCc2ccc(F)cc2)n1-c1ccccc1
  A = -12; B = .; C = 101; D = 72

(list continues)
Codes – A = HCMV UL50-53 inh; B = GIV-Gai inh; C = Sa growth 42C; D = Sa growth 42C second temp
> Cc1ccc(C)c(C(=O)OCC(=O)NC2CC2)c1
  A = -15; B = .; C = 84; D = 95
> COC(=O)CSc1nnnn1-c1ccc(C(=O)OC)cc1
  A = .; B = 95; C = 104; D = 97
> O=C1SC(SCc2ccccc2)=N/C1=C\c1ccco1
  A = -8; B = 106; C = 101; D = 66
> Cc1cccc2sc(NC(=O)c3ccc(COc4ccc5ccccc5c4)o3)nc12
  A = .; B = 111; C = 72; D = 80
> Cc1ccc(N2C(=O)N(Cc3cc(=O)oc4cc(C)ccc34)C(=O)C2C)cc1 (stereo unspecified)
  A = -21; B = .; C = 89; D = 91
> Cc1ccc(NCc2ccccc2O)c(C)c1
  A = -12; B = 100; C = 107; D = 84
> O=C(Nc1sc2c(c1C(=O)NCc1cccnc1)CCC2)c1cccs1
  A = -22; B = 107; C = 105; D = 99
> O=C(/C=C1/Nc2ccccc2NC1=O)Nc1cccc(C(F)(F)F)c1
  A = -31; B = 105; C = 84; D = 80
> COc1cc2c(C)nc(C)c(C#N)c2cc1OC
  A = -14; B = 116; C = 105; D = 82
> Cc1nc(COC(=O)c2ccc3c(c2)S(=O)(=O)c2ccccc2C3=O)cs1
  A = -57; B = .; C = 87; D = 93

Ordered by SMILES length (lowest first): some entries from above.
Codes – A = HCMV UL50-53 inh; B = GIV-Gai inh; C = Sa growth 42C; D = Sa growth 42C second temp
> O=C(Nc1ccno1)NN1CCOCC1
  A = -8; B = 100; C = 110; D = 86
> O=S(=O)(NCC1CC1)c1ccc(F)cc1F
  A = .; B = 101; C = 108; D = 107
> N#CCC(=O)Nn1c(=S)[nH]c2ccccc2c1=O
  A = .; B = 101; C = 103; D = 78
> C/C(CCc1ccc2c(c1)OCO2)=N\NC(=O)c1ccccc1
  A = 4; B = .; C = 108; D = 96
> O=C(Nc1sc2c(c1C(=O)NCc1cccnc1)CCC2)c1cccs1
  A = -22; B = 107; C = 105; D = 99
> O=C(/C=C1/Nc2ccccc2NC1=O)Nc1cccc(C(F)(F)F)c1
  A = -31; B = 105; C = 84; D = 80
> Cc1nc(COC(=O)c2ccc3c(c2)S(=O)(=O)c2ccccc2C3=O)cs1
  A = -57; B = .; C = 87; D = 93
> Cc1ccc(N2C(=O)N(Cc3cc(=O)oc4cc(C)ccc34)C(=O)C2C)cc1 (stereo unspecified)
  A = -21; B = .; C = 89; D = 91
> CCCn1c(=O)c(C(=O)NC23CC4CC(CC(C4)C2)C3)c(O)c2ccccc21
  A = .; B = 101; C = 84; D = 90
> CC12C(=O)N(CCC3=CCCCC3)C(=O)C1C(c1ccccc1)C=CC2c1ccccc1 (stereo unspecified)
  A = -18; B = .; C = 95; D = 87
> CC(=O)N1c2ccc(S(=O)(=O)N(C)CC(=O)N3CCN(C4CCCCC4)CC3)cc2CC1C (stereo unspecified)
  A = -18; B = 105; C = 95; D = 94
> CN1C(=O)C(C)(C)c2cc(S(=O)(=O)NCc3ccc(C(=O)Nc4ccc(Cl)cc4)cc3)ccc21
  A = .; B = 101; C = 124; D = 84

The results go on:
Codes – A = HCMV UL50-53 inh; B = GIV-Gai inh; C = Sa growth 42C; D = Sa growth 42C second temp
> CC(=O)NC1C(Oc2ccccc2)OC2COC(c3ccccc3)OC2C1O (stereo unspecified)
  A = -1; B = .; C = 105; D = 98
> Cc1nn(S(=O)c2ccc3ccccc3c2)c(C)c1Sc1ccc(Cl)cc1 (stereo unspecified)
  A = .; B = 103; C = 82; D = 97
> O=S(=O)(NCc1csc(-c2cccs2)n1)c1cccc2cccnc12
  A = -1; B = 102; C = 103; D = 85
> CSc1cccc(OC(F)(F)F)c1NC(=O)C(C)(C)C
  A = 5; B = 105; C = 104; D = 58
> COc1ccc(CCNc2ncnc3sc4c(c23)CCCC4)cc1
  A = .; B = 97; C = 70; D = 60
> CCOC(=O)c1c(N)sc2c1CCC(Sc1ccccc1)C2=O (stereo unspecified)
  A = 9; B = .; C = 131; D = 62
> COc1ccc(N2CCN(C(=O)CNC(=O)c3ccccc3)CC2)cc1
  A = -30; B = 107; C = 102; D = 97
> CSc1nc2ccc3nc(NC(=O)c4ccc(S(=O)(=O)N5CC(C)OC(C)C5)cc4)sc3c2s1 (stereo unspecified)
  A = 4; B = 107; C = .; D = .
> CCC1CN(C(=O)Nc2ccccc2C(F)(F)F)c2ccccc2O1 (stereo unspecified)
  A = -10; B = 104; C = 119; D = 94
> O=C(Nc1ccccc1F)c1oc2ccccc2c1NC(=O)C1c2ccccc2Oc2ccccc21
  A = -19; B = 101; C = .; D = .
